Sa growth inh: S. aureus growth inhibition; S. aureus RN4220 growth, OD600, 20 h, 42 °C; active compounds read low; relative growth, % (concentration not given with the values); hit rate 0.53% among 170,000; AID 720641;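 active = growth at 42 °C up to 50% and 20 or more points under that at 30 °C, or under 10% at both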;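 also: 300 nL library stock went into each well; scaled to the means of positive and negative controls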
HCMV NEC inh: cytomegalovirus nuclear egress complex inhibition; HTRF UL50-UL53 interaction, normalized percent inhibition; inhibition, % (concentration not given with the values); hit rate 0.15% among 190,000; AID 1918969;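 active = both replicates at 50% or more, plus weaker picks with an unusually low signal ratio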;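 also: stock transfer was 100 nL into about 20 µL; 0% = negative control wells and 100% = wells with untagged competitor protein; inactives centre near -12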
GIV Gai3 FP: blocks GIV peptide binding to rat Galpha-i3. percent of control (FP), % (concentration not given with the values). Galpha-i3/FITC-GIV peptide fluorescence polarization, 90 min; active compounds read low; scaled: aluminum fluoride 0%, vehicle 100%. AID 1224905. hit rate 0.42% among 210,000. P08753;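 active = replicate mean at 85% of control or lower, very high polarization wells dropped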;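 also: wells of about 15 µL received 100 nL stock; the first replicate is given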
Target sequence (P08753 whole entry, looked up): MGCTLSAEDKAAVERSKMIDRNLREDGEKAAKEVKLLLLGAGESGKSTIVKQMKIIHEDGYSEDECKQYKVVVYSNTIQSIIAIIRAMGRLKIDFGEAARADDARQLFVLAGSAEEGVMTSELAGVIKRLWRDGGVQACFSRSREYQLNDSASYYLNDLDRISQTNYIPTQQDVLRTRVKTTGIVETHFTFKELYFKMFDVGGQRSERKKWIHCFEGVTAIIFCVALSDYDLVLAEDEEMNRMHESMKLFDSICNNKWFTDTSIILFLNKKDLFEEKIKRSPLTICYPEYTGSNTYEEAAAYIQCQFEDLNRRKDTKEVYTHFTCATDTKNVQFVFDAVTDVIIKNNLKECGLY
Sa growth inh second temp: also measured in Sa growth inh; calls as there; relative growth, %; measured here: growth at 30 °C;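 optical density after 20 h as mean of two plates; 100% = untreated growth and lower means inhibition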
An asterisk follows results filed as active; / = no result given. Rows were taken by chance (roughly 0.83% active in at least one column).

SMILES	Sa growth inh	Sa growth inh second temp	HCMV NEC inh	GIV Gai3 FP
Cc1noc(C)c1COC(=O)c1ccccc1NC(=O)Cc1ccccc1	94.2	85.2	-26.3	/
CCC(C(=O)NCCN1CCN(CC)CC1)N1C(=O)CCCc2ccccc21 (stereo not given)	/	/	-1.1	105.8
CCCn1ccc2c(OCC(=O)Nc3ccc(F)cc3F)cccc2c1=O	131.8	74.1	/	89.4
CCn1cnc2c(cnn2-c2ccccc2)c1=O	108.2	76.3	1.8	106.7
CCCOc1ccc(-c2cc(C(F)(F)F)c(C#N)c(SCCC(=O)O)n2)cc1	65.8	53.8	-20.5	100.3
Cc1ccc2ncc(C(=O)Nc3ccc(F)cc3)c(=O)n2c1	/	/	-5.3	98.2
CCOC(=O)c1nnn2c1nc(SCc1ccc(F)cc1)c1ccccc12	89.7	85.3	17.5	106.0
Cc1nc2cc(C(=O)Nc3ccccc3O)ccc2n1-c1ccccc1	62.8	40.5	-46.2	/
COCCNC(=O)Cc1ccc(F)cc1	106.5	80.3	-10.5	105.5
Cc1cccc(NC(=O)C2CC(=O)NC(=Nc3ccccc3)S2)c1 (stereo not given)	109.9	99.9	9.4	103.2
COC(=O)c1cc(NC(=O)CNc2cc(NC(C)=O)ccc2OC)cc(C(=O)OC)c1	101.7	90.9	5.9	/
Cc1cccc(C(=O)OCC(=O)N2CCCC(C)C2)c1 (stereo not given)	99.7	93.1	-1.7	/
CCN(CC)CCCNC(=O)c1ccc(-c2nc(CN3CCc4ccccc43)c(C)o2)cc1	108.3	82.6	/	107.5
COc1ccccc1N1CCN(C(=O)/C=C/c2c(C)nn(-c3ccccc3)c2C)CC1	96.5	94.7	-11.6	/
CCN(CC)CCNc1cc(C)nc2c(-c3ccc(C)cc3)c(C(F)(F)F)nn12	/	/	10.8	97.7
Cc1ccc(CSc2nc(-c3ccccc3C)nc3c2Cc2c(CO)cnc(C)c2O3)cc1	89.8	98.1	/	104.0
Cc1occc1C(=O)Nc1ccccc1Cc1ccccc1	111.7	101.7	-7.9	100.3
Cc1c(Cl)cccc1NC(=O)C(=O)NCCc1csc(-c2cccc(F)c2)n1	95.4	87.0	/	105.2
COC(=O)C1=C(C)N(C)C(=O)/C1=C\c1ccccc1	94.9	99.9	/	100.7
CC1(C)CC(=O)C(CC(=O)Nc2ccc(S(N)(=O)=O)cc2)=C(O)C1	106.2	78.2	-24.9	105.7
CN(C)C(=O)c1ccc(N2CCNCC2)c(NS(=O)(=O)c2ccc(C3CCCCC3)cc2)c1	/	/	-9.2	96.2
CCOC(=O)c1cc(=O)c2ccc(OCC(=O)Nc3ccccc3)cc2o1	96.6	89.9	-33.4	100.9
COc1ccc(C2(CNC(=O)C(c3ccccc3)c3ccccc3)CCOCC2)cc1	117.6	89.8	/	103.3
CCOC(=O)CSc1nnc(-c2cccc(OC)c2)n1-c1ccccc1	/	/	-1.2	106.0
COC(=O)c1cccc(NC(=O)C=C(C)C)c1	123.8	77.6	-8.0	106.0

Part of the list above in order of molar mass, descending:
SMILES	Sa growth inh	Sa growth inh second temp	HCMV NEC inh	GIV Gai3 FP
CN(C)C(=O)c1ccc(N2CCNCC2)c(NS(=O)(=O)c2ccc(C3CCCCC3)cc2)c1	/	/	-9.2	96.2
COc1ccccc1N1CCN(C(=O)/C=C/c2c(C)nn(-c3ccccc3)c2C)CC1	96.5	94.7	-11.6	/
CCN(CC)CCNc1cc(C)nc2c(-c3ccc(C)cc3)c(C(F)(F)F)nn12	/	/	10.8	97.7
CCOC(=O)c1nnn2c1nc(SCc1ccc(F)cc1)c1ccccc12	89.7	85.3	17.5	106.0
CCOC(=O)CSc1nnc(-c2cccc(OC)c2)n1-c1ccccc1	/	/	-1.2	106.0
CCOC(=O)c1cc(=O)c2ccc(OCC(=O)Nc3ccccc3)cc2o1	96.6	89.9	-33.4	100.9
Cc1noc(C)c1COC(=O)c1ccccc1NC(=O)Cc1ccccc1	94.2	85.2	-26.3	/
Cc1cccc(NC(=O)C2CC(=O)NC(=Nc3ccccc3)S2)c1 (stereo not given)	109.9	99.9	9.4	103.2
Cc1ccc2ncc(C(=O)Nc3ccc(F)cc3)c(=O)n2c1	/	/	-5.3	98.2
Cc1occc1C(=O)Nc1ccccc1Cc1ccccc1	111.7	101.7	-7.9	100.3
COC(=O)C1=C(C)N(C)C(=O)/C1=C\c1ccccc1	94.9	99.9	/	100.7
COC(=O)c1cccc(NC(=O)C=C(C)C)c1	123.8	77.6	-8.0	106.0

Following part.
SMILES	Sa growth inh	Sa growth inh second temp	HCMV NEC inh	GIV Gai3 FP
CCc1cccc(C)c1Nc1nn2c(=O)c3ccccc3nc2s1	106.2	84.0	/	106.0
Cc1nc(C)c(C(=O)NCc2ccc3c(c2)OCO3)s1	92.9	81.9	-24.2	101.7
Cc1sc(NC(=O)/C=C/c2cccs2)c(C#N)c1C	113.8	100.0	-34.9	100.4
Nc1nc(SCc2ccc(Cl)cc2Cl)ns1	103.0	46.2	-6.8	100.7
Cc1ccc(NC(=O)n2ncc3c(C)cccc32)cc1F	/	/	-22.5	100.0
COc1ccc(C2C(C(=O)OCC(=O)N3CCCCC3)CCC(=O)N2c2ccc(OC)cc2)cc1 (stereo not given)	96.7	84.5	-29.2	/
CCOC(=O)c1cn(-c2nonc2N)nn1	99.4	81.9	-2.5	98.1
O=C(O)CCC(=O)Nc1cc(Cl)ccc1Cl	101.7	98.5	4.4	/
N#Cc1ccc(C23CC4CC(CC(C4)C2)C3)nc1SCc1ccccn1	105.2	76.9	/	103.4
COc1nc(NCCc2ccc(OC)c(OC)c2)nc(N2CCC(Cc3ccccc3)CC2)n1	111.9	102.9	17.3	109.9
Cc1cccc(NC(=O)Cn2c(=O)n(Cc3ccc4c(c3)OCO4)c(=O)c3oc4ccccc4c32)c1C	94.4	91.4	/	102.8
Cc1ccn(CCC(=O)NCCc2ccccc2)n1	99.7	100.2	11.0	101.9
O=C(c1cccs1)N(Cc1ccc(Br)cc1)c1ccc(F)cc1	85.9	90.0	-47.0	105.3
O=C(CSc1nnnn1Cc1ccccc1)n1c2c(c3c1CCCC3)CCCC2	106.5	93.0	-7.7	100.7
CN1CCN(C(=O)c2cnn(-c3cccc(Cl)c3)c2C2CCN(C(=O)OC(C)(C)C)CC2)CC1	99.7	86.8	/	100.8
CC1(C)C2CCC1(C)C(NC(=O)C1COc3ccccc3O1)C2 (stereo not given)	106.3	94.5	6.8	/
CC(C)Cn1nccc1N	99.8	90.3	-12.1	/
COc1cccc(NC(=O)Cn2c(=O)c3cccn3c3ccc(F)cc32)c1	127.0	93.2	-20.5	99.6
CCOC(=O)CS(=O)(=O)c1nc2c(c(C(F)(F)F)n1)CCc1ccccc1-2	74.9	98.6	-11.2	95.8
O=C(COC(=O)/C=C/c1ccccc1Cl)Nc1cccnc1Cl	109.0	95.3	-0.3	/
CCCCC(=O)Nc1c2c(nn1C(C)(C)C)CS(=O)C2 (stereo not given)	104.7	83.2	/	103.6
CC1CCc2sc(-c3nnc(SCC4CCOCO4)o3)cc2C1 (stereo not given)	76.9	85.3	-25.7	/
O=C(CCc1n[nH]c(=O)[nH]c1=O)NCc1ccccc1	99.1	91.1	-10.1	104.6
CCc1cc(C(=O)NCc2ccccc2)no1	98.3	83.0	-18.1	102.6
CCC1CCCCN1C(=O)c1cc2ccccc2oc1=O (stereo not given)	129.6	87.3	14.0	/
SMILES	Sa growth inh	Sa growth inh second temp	HCMV NEC inh	GIV Gai3 FP
CCN(CC)c1ccc(NC(=O)CN2CCN(S(=O)(=O)c3cc(Cl)ccc3OC)CC2)cc1	99.4	75.9	/	102.7
COc1ccc2c(c1)sc(=NC(=O)COCC(=O)N=c1sc3cc(OC)ccc3n1C)n2C	119.0	85.1	0.0	107.8
Cc1noc(Cn2c(=O)c3cc4c(cc3n(CC(=O)Nc3ccc(C(C)C)cc3)c2=O)OCO4)n1	104.1	97.2	/	102.7
CCCN1N=C(C(C)(C)C)Cn2c1nc1c2c(=O)n(CCC)c(=O)n1C	81.3	84.3	-29.2	101.0
CC(C)COc1ccc(OCC(C)C)c(N)c1	88.1	102.6	-1.0	/
Cc1ccc2cccc(NC(=O)COc3cc(C)c(Cl)c(C)c3)c2n1	99.7	93.9	0.9	100.7
Cc1onc(-c2ccccc2Cl)c1C(=O)N1CCCC1	124.8	102.9	-15.3	100.9
N=C1C(c2nc3ccccc3s2)=C(O)CN1/N=C/c1ccc(O)c(O)c1O	113.8	76.5	-16.0	/
O=C(NCC(=O)N1CCc2ccccc21)c1ccccc1Cl	101.2	96.3	1.0	/
O=C(Nc1nc2ccc([N+](=O)[O-])cc2s1)c1ccc(S(=O)(=O)N2CCc3ccccc32)cc1	/	/	-21.9	106.3
Cn1c(C(=O)O)ccc1S(=O)(=O)N(Cc1ccccn1)Cc1ccccn1	88.9	86.6	-47.2	104.6
CCOC(=O)C1=C(C)OC(N)=C(C#N)C1c1c(C)nn(-c2ccccc2)c1Cl (stereo not given)	/	/	-18.4	105.3
O=C(COc1ccccc1)NS(=O)(=O)c1ccccc1	119.8	94.5	4.5	/
Cc1ccc(-c2nc3n(n2)C(c2ccccc2C)C=C(c2ccc(Cl)cc2)N3)cc1 (stereo not given)	102.9	112.1	22.6	101.3
N#CCCN(C1CCCCC1)S(=O)(=O)c1ccc(Cl)cc1	102.8	86.5	1.5	98.2
CSCc1ccc2oc(C(=O)O)cc2c1	93.4	94.2	-16.3	102.7
COC(=O)c1ccc(C(=O)OC)c(NC(=O)Cn2nc(C(F)(F)F)cc2C)c1	86.2	89.8	/	100.4
COc1ccc(-c2cc(N)n(S(=O)(=O)Cc3ccccc3)n2)cc1	93.3	89.0	/	102.1
Cc1n[nH]c(C)c1S(=O)(=O)N(CC(=O)NC(C)c1ccccc1)c1ccc(C(C)C)cc1 (stereo not given)	95.3	91.8	-34.0	105.3
CCOC(=O)C1=C(C)N=c2s/c(=C\c3ccc(OC)cc3)c(=O)n2C1c1ccc(OC)c(OC)c1 (stereo not given)	/	/	-13.2	105.6
O=C(NC1CC(=O)N(c2ccc(F)cc2)C1)c1ccc2c(c1)OCO2 (stereo not given)	108.3	82.9	/	97.8
O=c1c2cnn(CCO)c2ncn1Cc1ccc(F)cc1	86.2	85.8	-7.3	106.9
N#CCSc1ccccc1NC(=O)COC(=O)Cc1c[nH]c2ccccc12	71.7	86.7	-23.6	/
O=c1c2cc3c(cc2[nH]c(=S)n1CCN1CCOCC1)OCO3	99.2	89.3	-26.8	108.4
CCOC(=O)C1CCN(C(=O)c2ccc3c(c2)NC(=O)C(CS(=O)(=O)Cc2ccccc2Cl)N3)CC1 (stereo not given)	98.9	98.7	-53.7	117.8
SMILES	Sa growth inh	Sa growth inh second temp	HCMV NEC inh	GIV Gai3 FP
CC1CCc2c(sc(NC(=O)c3cc4nc(-c5ccc(Cl)cc5)cc(C(F)(F)F)n4n3)c2C#N)C1 (stereo not given)	92.2	85.4	-17.0	103.7
CCOC(=O)C1CCN(C(=O)Cn2cc(C(=O)c3ccco3)c3ccccc32)CC1	120.5	106.7	-8.9	102.9
COc1ccc(Cl)cc1S(=O)(=O)Nc1cccc(-c2ccc(N3CCCC3)nn2)c1	95.3	90.8	/	104.7
Cc1ccc(-c2cn3nc(N4CCCC(C(=O)NCc5ccc(F)cc5)C4)sc3n2)cc1 (stereo not given)	109.0	70.2	/	103.8
O=C(NCc1ccc2c(c1)OCO2)c1ccc(-c2noc(C3CCCC3)n2)cc1	/	/	-18.0	103.9
Cc1ccc(OC(=O)NC2(C(F)(F)F)OCCO2)cc1	96.8	84.8	-5.6	/
Cc1noc(C)c1COc1ccc(CC(=O)N(C)Cc2ccc3c(c2)OCO3)cc1	79.8	93.2	-21.3	/
O=C(NC1CCS(=O)(=O)C1)c1cc(-c2ccc3c(c2)OCCO3)on1 (stereo not given)	/	/	-7.2	100.4
N=C1N=C2C=CC=CN2C(=O)/C1=C\c1ccccc1	94.4	92.8	-4.2	/
Cc1c(Cl)cccc1N=C1NN=C(c2c(N)n(C)c(=O)[nH]c2=O)CS1	109.3	68.0	0.9	/
O=C(NC1CCCCNC1=O)c1csc2ccccc12 (stereo not given)	103.5	91.5	-13.3	101.0
Cc1ccc(C)c(S(=O)(=O)Nc2cc(C(=O)O)cnc2N2CCCC2)c1	/	/	-40.5	104.4
CS(=O)(=O)NC1CCN(Cc2ccccc2)CC1	96.8	87.6	-4.4	/
CNC(=O)c1cc(S(=O)(=O)Nc2ccc3c(c2)OCCO3)ccc1C	102.1	100.2	-37.7	108.6
O=C(NCCCn1ccnc1)c1nn2c(C(F)(F)F)cc(-c3ccccc3)nc2c1Br	/	/	-35.8	98.2
CCc1c(C)nc2n(c1=O)C(CS(=O)(=O)c1ccc(C)cc1)CS2 (stereo not given)	97.6	88.2	/	101.0
O=C(Oc1c(CN2CCOCC2)cc(Cl)c2cccnc12)c1ccccc1Cl	110.5	40.4	/	103.0
Cc1ccc2nc(N3CC(=O)N(CCc4ccccc4)C(=O)C3)c3nncn3c2c1	99.9	73.2	/	100.7
O=C1C(=Cc2ccc3c(c2)OCO3)C(=O)c2ccccc21	93.5	96.0	-78.8	98.9
OC1Cc2cccc3cccc1c23 (stereo not given)	94.2	89.5	-48.1	105.6
COc1ccc(-c2c(C#N)c(SCC(=O)Nc3ccccc3C)nc(C)c2C(=O)Nc2ccc(Cl)cc2)cc1	102.3	98.6	14.3	109.5
CC(=O)c1cc(C(=O)Nc2cc(C)cc(C)c2)c2ccccn12	106.0	96.0	-6.3	104.3
FC(F)Oc1cc(C(F)(F)F)cc(C(F)(F)F)c1	111.8	90.3	-24.0	/

Source: PubChem BioAssay
